StopGo FLuc: lowers the firefly signal of an FMDV 2A StopGo reporter. HEK cells with a luciferase reporter of 2A StopGo recoding. Potency, µM (titrated, usually from 57.5 µM), for the others: at the highest dose signal change, negative = less light. 120,000 tested, 0.23% active; active = well fitted falling curve with a large enough effect; inconclusive = small, poorly fitted or top-dose-only effect; inactive = no such curve, though single readings can be large or run the other way; also: nearly all actives have a fitted effect of over 60% in size; overnight with compound
StopGo RLuc: FMDV 2A StopGo reporter, Renilla signal. HEK cells with a luciferase reporter of 2A StopGo recoding. Potency, µM (titrated, usually from 57.5 µM), for the others: at the highest dose signal change, negative = less light. 120,000 tested, 0.32% active; active means well fitted falling curve with a large enough effect; inconclusive means small, poorly fitted or top-dose-only effect; inactive means no such curve, though single readings can be large or run the other way; also: nearly all actives have a fitted effect of over 55% in size; overnight with compound
The depositor's hits bear a star; ? = inconclusive; [ ] = remark or other dose. % is scaled to controls: 0 for no effect and ±100 for the full control effect; potency is read from the fitted curve at half-maximal effect. A portion of the library (hit frequency here may not be typical).

SMILES	StopGo FLuc	StopGo RLuc
Cc1ccc(/C=N\NC(=O)c2cccs2)s1	294%[activator]	44%[activator]
O=C(OCc1ccc(Cl)cc1Cl)c1ccccc1Oc1ccccc1	?	10%
Cc1ccc(C(=O)Oc2cccc(Cl)c2)cc1	6%	-3%
CN(C)c1ccc(C(CNC(=O)/C=C/c2ccco2)c2c[nH]c3ccccc23)cc1 (centres undefined)	8%	-13%
OCc1ccccc1-c1nc2ccccc2s1	178%[activator]	13%
COc1ccc2c(C)c(CC(=O)NCCN3CCOCC3)c(=O)oc2c1C	-9%	-9%
COc1cc(NS(=O)(=O)c2ccccc2Br)c(C(=O)O)cc1OC	-5%	4%
Cc1cccc(NC(=O)Cn2cnc3c2c(=O)n(C)c(=O)n3C)c1C	6%	15%
COc1ccccc1CNC(=O)CN1C(=O)CCc2cc(S(=O)(=O)N3CCCCC3)ccc21	66%[activator]	190%[activator]
CC(C)Oc1ccc(CNC(=O)C2CCCCN2S(=O)(=O)c2ccc(F)cc2)cc1 (centres undefined)	2%	52%[activator]
O=C(CN1C(=O)NC2(CCOc3ccccc32)C1=O)NCCc1c[nH]c2ccccc12 (centres undefined)	-8%	-10%
CCc1ccc(-n2c(=O)c3c4c(sc3n(CC(=O)N3CCC(C)CC3)c2=O)CCC4)cc1	-6%	-5%
Fc1ccc2c(c1)-c1nc(-c3ccccc3)cc(-c3ccccc3)c1CO2	-18%	-9%
O=C(CN1CCN(Cc2cccc3cccnc23)CC1)NC1CC1	4%	-10%
COc1ccc(C(=O)Nc2oc3c(C)cccc3c(=O)c2-c2ccc(OC)c(OC)c2)cc1OC	-14%	-18%
Cc1cc(C)c(NC(=O)Cn2c(=O)n(-c3ccc(F)cc3)c(=O)c3c(C)c(C(=O)N(C)C)sc32)c(C)c1	-7%	-14%
COc1cc(CCC(=O)O)cc2c1OCO2	-11%	-5%
N#CCCN(CCC#N)C(=O)C1CCN(C(=O)c2cccs2)CC1	0%	10%
Cc1cc(CS(=O)(=O)Cc2ccccc2Cl)on1	76%[activator]	40%
COc1nc2ccccc2nc1N1CCC(C(=O)NCc2ccccc2C)CC1	-4%	0%
O=c1c2ccccc2n(Cc2cccc(F)c2)c(=O)n1Cc1ccccc1Cl	-7%	6%
CCN(CC)C(=O)CCc1ccc(C(C)(C)C)cc1	32%[activator]	7%
Cc1cccc(-c2nnc(C3CCN(S(=O)(=O)c4cccc(Cl)c4)CC3)o2)c1	12%	2%
CCCN1CCN(C(=O)c2ccc(-n3nc(C)c(-c4ccccc4)c3NC(C)=O)cc2)CC1	8%	-5%
COc1ccc(OC)c(CCNc2ncnc3onc(C)c23)c1	?	?
CC(=O)c1cccc(NC(=O)Nc2cccc(-c3nnc(Cc4ccc5c(c4)OCO5)o3)c2)c1	7%	9%
Cc1ccc(CSc2nncn3c2cc2sccc23)cc1	0%	-6%
Cc1ccc(NC(=O)Nc2nnc(N(C)Cc3ccccc3)s2)c(C)c1	-4%	8%
Cc1ccccc1-c1noc(-c2ccc(N3CCCCC3)c([N+](=O)[O-])c2)n1	-77%	8%
COCCn1ccc2nc3ncnn3c(-c3ccccc3)c2c1=O	29%	12%
COc1ccc(C(=O)Nc2nnc(S(=O)(=O)N3CCCCCC3)s2)cc1OC	-13%	9%
CC1=C(c2ccc(C(C)C)cc2)S(=O)(=O)N=C1N1CCN(c2ccccc2F)CC1	-18%	-4%
Cc1cc(NC(=O)CC(C)C)cc(-c2nc3ncccc3o2)c1O	-10%	-7%
COC(=O)c1cc(S(=O)(=O)N(C)CC(=O)Nc2ccc(Cl)cc2C)cn1C	-8%	0%
CC(C)C(C)NC(=O)CCc1ccc(C#N)cc1 (centres undefined)	-6%	-15%
COC(CNC(=O)c1ccc(CNS(=O)(=O)c2ccc(Br)cc2)cc1)OC	-7%	26%
N#Cc1ccc(COc2ccccc2C#N)cc1	227%[activator]	20%
COc1ccc(OCC(=O)NCC(c2ccc(Cl)cc2)N2CCCCC2)cc1 (centres undefined)	-15%	-6%
COc1ccc(S(=O)(=O)N(C)CC(=O)N2CCOCC2)cc1C	6%	3%
O=C1CN(C(=O)Cn2c(-c3ccccc3)cc3ccccc32)CCN1	-3%	-10%

A run of entries of the results above, as a working copy:
SMILES	StopGo FLuc	StopGo RLuc
COC(CNC(=O)c1ccc(CNS(=O)(=O)c2ccc(Br)cc2)cc1)OC	-7%	26%
N#Cc1ccc(COc2ccccc2C#N)cc1	227%[activator]	20%
COc1ccc(OCC(=O)NCC(c2ccc(Cl)cc2)N2CCCCC2)cc1 (centres undefined)	-15%	-6%
COc1ccc(S(=O)(=O)N(C)CC(=O)N2CCOCC2)cc1C	6%	3%
O=C1CN(C(=O)Cn2c(-c3ccccc3)cc3ccccc32)CCN1	-3%	-10%

Following part:
SMILES	StopGo FLuc	StopGo RLuc
CCCc1nnc(NC(=O)c2cc(=O)c3cc(C)cc(C)c3o2)s1	1%	-8%
Cc1ccc(-c2cc(C34CC5CC(CC(C5)C3)C4)nc3sc4c(c23)CCC4)cc1	0%	1%
COc1ccc(NC(=O)CCc2c(C)c3ccc(C)cc3oc2=O)cc1	-8%	-4%
COc1ccc(Cl)cc1NC(=O)CSc1nc(-c2ccco2)cc(C(F)(F)F)n1	-18%	0%
CCc1ccc2nc(N(CCN(CC)CC)C(=O)c3ccco3)sc2c1	51%[activator]	-6%
Cc1cccc(CNS(=O)(=O)c2ccc(-c3coc(C)n3)cc2)c1	29%	67%[activator]
Cc1ccc2nc(NCC(=O)O)nc(-c3ccccc3)c2c1	-6%	-10%
O=[n+]1cc(-c2cccc(C(F)(F)F)c2)n([O-])c2c1CCCC2	-12%	-1%
COc1ccc(OC)c(CNC(=O)Cc2ccc(NC(=O)N3CCSc4ncccc43)cc2)c1	2%	0%
Cc1ccc2[nH]c(=O)c3cc(C(=O)NCCc4ccc(Cl)cc4)sc3c2c1	1%	11%
COc1ccc(SCc2cc(=O)c3cc(Cl)ccc3[nH]2)cc1	?	37%[activator]
O=C(Nc1ccc(NC(=O)C2CCN(c3nc4ccccc4o3)CC2)cc1)C1CC1	2%	-9%
COc1ccc(NC(=O)c2c(-c3ccc(C)cc3)nnc3ccccc23)c(OC)c1	47%[activator]	61%[activator]
N#Cc1ccccc1NC(=O)CN1CCN(S(=O)(=O)c2cccs2)CC1	-8%	34%[activator]
CCOC(=O)c1ccc2ncc(C(=O)OCC)c(NCCCOC(=O)c3ccccc3)c2c1	11%	9%
CCOc1ccc2nc(NC(=O)c3cccn(Cc4ccc(C)cc4)c3=O)sc2c1	24%	-13%
O=C(Nc1ccccc1C(F)(F)F)N1CC=C(c2c[nH]c3ccccc23)CC1	47%[activator]	-13%
COc1ccc(Cl)cc1-n1nnc(-c2nc(-c3ccccc3)no2)c1C	-2%	1%
COc1cccc(-n2ccn(CC(=O)NCc3ccc(C)cc3)c(=O)c2=O)c1	-1%	22%
Cc1cccc(OCC(=O)Nc2c(C(=O)N3CCN(c4ccccc4)CC3)oc3ccccc23)c1	-4%	-4%
COc1cc(Nc2nc3ccccc3nc2-n2nc(C)cc2C)cc(OC)c1	-3%	7%
Cc1ccc(NC(=O)/C=C/c2cccs2)cc1C	220%[activator]	0%
CC1CCc2noc(NC(=O)c3ccc(F)cc3)c2C1 (centres undefined)	115%[activator]	85%[activator]
Cc1cccc(Cc2cnc(NC(=O)c3ccc4c(c3)CC(c3ccccc3)OC4=O)s2)c1 (centres undefined)	-9%	-12%
CCOC(=O)c1[nH]c(C=O)c(C(C)=O)c1C	22%	25%
COc1cc2c(c(OC)c1OC)CC(N)CCC2 (centres undefined)	-2%	-3%
COc1cccc(NC(=O)CN(CCc2ccccc2)S(=O)(=O)c2ccc(Cl)cc2)c1	1%	35%[activator]
Oc1ccc(NCc2ccccc2OCc2ccccc2Cl)cc1	34%[activator]	-5%
CCCNC(=O)c1cc2cc(OCC)ccc2n1C	71%[activator]	9%
CC(=O)c1cc(CC(=O)O)cs1	11%	10%

An excerpt of these results, in CSV form.
structure,StopGo FLuc,StopGo RLuc
Oc1ccc(NCc2ccccc2OCc2ccccc2Cl)cc1,34%[activator],-5%
Cc1ccc(NC(=O)/C=C/c2cccs2)cc1C,220%[activator],0%
Cc1cccc(Cc2cnc(NC(=O)c3ccc4c(c3)CC(c3ccccc3)OC4=O)s2)c1 (centres undefined),-9%,-12%
COc1cc2c(c(OC)c1OC)CC(N)CCC2 (centres undefined),-2%,-3%
CC1CCc2noc(NC(=O)c3ccc(F)cc3)c2C1 (centres undefined),115%[activator],85%[activator]
CCOC(=O)c1[nH]c(C=O)c(C(C)=O)c1C,22%,25%

Continued:
SMILES	StopGo FLuc	StopGo RLuc
CCCn1c(=O)n(CC(=O)NCc2nnc3n2CCCCC3)c2ccccc21	-12%	-8%
Fc1ccc(CNC(=S)Nc2ccc3ccccc3c2)cc1	194%[activator]	278%[activator]
O=C(CC1C(=O)N(c2ccc(F)cc2)C(=O)N1Cc1cccnc1)Nc1ccc(F)cc1 (centres undefined)	-12%	-10%
CC(C)[C@H](NC(=O)Cc1ccccc1)C(=O)O	-7%	0%
O=C(CCC1CCCCC1)NC(N1CCCCC1)(C(F)(F)F)C(F)(F)F	3%	-6%
CCOc1ccccc1C(=O)Oc1c(S(=O)(=O)c2ccc(C)cc2)c(C)nn1-c1ccccc1	-16%	31%[activator]
COc1ccc(Cn2c(CNS(=O)(=O)c3ccc4c(c3)CCCC4)nc3cccnc32)cc1	-5%	-18%
O=C(CN1CCC2(CC1)OCCO2)Nc1ccc(F)cc1	0%	-2%
O=C(Nc1ccc2c(c1)CCC2)c1cc(F)c(F)cc1Cl	182%[activator]	-3%
O=C(NCCN1CCOCC1)C(=O)Nc1cccc(N2CCCS2(=O)=O)c1	17%	1%
CCOc1ccccc1NC(=O)C1=C(C)Nc2ncnn2C1c1ccc(NC(C)=O)cc1 (centres undefined)	-1%	-11%
C=CCn1c(SCC(=O)O)nc2c1c(=O)[nH]c(=O)n2C	-9%	-4%
CC(C)Cc1nc(OCC(N)=O)c(C#N)c2c1CCCC2	-15%	-14%
O=C(COC(=O)C1(c2ccc(F)cc2)CCCC1)c1ccc(Cl)cc1	?	?
O=C(OCCCS(=O)(=O)c1ccccc1)c1ccc(I)cc1	1%	-2%
COc1ccc(NC(=O)Cn2c(SCc3c(F)cccc3Cl)nc3ccncc32)cc1OC	-14%	-12%
CC1CCCCN1CCNC(=O)c1nn(C)c2c1COc1ccccc1-2 (centres undefined)	11%	-9%
Cc1ccc(OCC(=O)N2CCN(CCc3ccncc3)CC2)cc1C	-7%	-16%
CCOC(=O)c1c(C)[nH]c(CCC(=O)NCCCN2CCN(c3cc(C)ccc3C)CC2)c1C	-22%	-22%
CCC(=O)Nc1ccc(C(=O)NN=C(C)C)cc1	0%	-4%
COc1ccc(C2C(c3ccc(C)cc3)=C(O)C(=O)N2CCc2ccccc2)cc1 (centres undefined)	11%	-3%
COc1ccccc1NC(=O)C1CCN(S(=O)(=O)c2cn(C)cn2)CC1	64%[activator]	14%
CCCC(=O)Nc1cc(-c2nc3cc(C)ccc3o2)ccc1C	62%[activator]	9%
C=CCNC(=O)CSc1cc(C)c2cc(C)cc(C)c2n1	0%	-11%
COc1ccc(C2=NN(C(C)=O)C(c3cn(-c4ccccc4)nc3-c3cccs3)C2)cc1 (centres undefined)	-13%	-9%
CSc1cccc(Nc2cc(C(=O)NC3CCCCC3)c3ccccc3n2)c1	11%	35%
Cc1ccccc1Cn1cc(CCC(=O)NC2CC2)c2ccccc21	4%	-8%
CCCCN(CC)C(=O)c1cc2c(=O)n3cccc(C)c3nc2n1C	1%	5%
CC(=O)c1ccccc1NC(=O)CSC1=Nc2ccccc2C2CC=NN12 (centres undefined)	-8%	46%[activator]
COc1ccc(N2CCN(C(CNC(=O)C(=O)NCc3cccnc3)c3cccnc3)CC2)cc1 (centres undefined)	-6%	41%[activator]
Cc1ccc(NC(=O)Cn2c(CCC(=O)O)ccc2-c2cccs2)cc1	-6%	0%
O=C(c1ccc2c(c1)N(Cc1cccc(Cl)c1)C(=O)c1ccccc1S2(=O)=O)N1CCC(Cc2ccccc2)CC1	-29%	-15%
CCOCCCNC(=O)C(c1ccc(OC)cc1)N(Cc1cccs1)C(=O)CNC(=O)c1ccccc1 (centres undefined)	-3%	11%
CCOC(=O)c1[nH]c(C)c(CCC(=O)N2CCC(C(=O)NCCN3CCCCC3C)CC2)c1C (centres undefined)	-9%	-10%
Cc1nnc(N2C(=O)c3oc4ccccc4c(=O)c3C2c2cccc(OCCC(C)C)c2)s1 (centres undefined)	-10%	-4%
COc1ccc(-c2noc(-c3ccc(N4CCN(c5ccccc5)CC4)c([N+](=O)[O-])c3)n2)cc1	10%	9%
